# Vaccinia Venus – inhibitors of vaccinia virus (Venus reporter). Vaccinia virus Venus reporter expression, fluorescence. Potency, µM (titrated, usually from 36.5 µM), for the others: top-dose activity change, negative = inhibition, hits mostly inhibitors. actives 0.46% (n = 330,000). AID 720580; active means well fitted inhibition curve with a large enough effect; inconclusive means small, poorly fitted or top-dose-only effect; inactive means no such curve, though single readings can be large or run the other way; tested in A549 cells; further: nearly all actives have a fitted effect of over 30% in size; inactives centre near -10
# VACV mCherry inh – vaccinia inhibition (mCherry reporter); actives 0.63% (n = 310,000); Vaccinia virus mCherry reporter infection, fluorescence; about a quarter of the inactives have no number; Potency, µM (series often up to 36.5 µM), for inactives: top-dose activity change, negative = inhibition, hits mostly inhibitors; active = well fitted inhibition curve with a large enough effect; inconclusive = small, poorly fitted or top-dose-only effect; inactive = no such curve, though single readings can be large or run the other way; tested in A549 cells; further: nearly all actives have a fitted effect of over 35% in size; inactives centre near -10
# * hit, by the source's call; i = inactive; ? = inconclusive; / = no result given; & = joins results of further samples; [ ] = remark or other dose. On the % scale 0 is the no-effect control and ±100 the full control effect; potency means the concentration at half of the fitted maximal effect. The order is random. About 0.87% of those tested had a hit in this group.
SMILES,Vaccinia Venus,VACV mCherry inh
O=C(Cc1cccc(C(F)(F)F)c1)Nc1ccccc1,-2.4%,2.3%
CC(C)(C)c1ccc(CC(=O)N2CCC2(C)C(=O)Nc2cccc3ccccc23)cc1 (stereo not given),6.8%,29.7%
CN1CCN(c2ccc(F)cc2N)CC1,11.6%,-17.4%
N=C(N)Cc1ccccc1Sc1ccccc1,-13.1%,-5.8%
CC(=O)Nc1ccc(NC(=O)COC(=O)c2ccccc2OCc2cccc(Br)c2)cc1,-12.9%,-8.4%
Cc1cc(CN2CCN(c3ccc(F)cc3)CC2)cs1,-12.3%,-11.0%
CC(=O)Nc1cccc(NC(=O)CSc2nc(C3CC3)nc3ccccc23)c1,?,-5.9%
COc1cccc(C(=O)Nc2cc(=O)n(C)c(=O)n2C)c1OC,-6.4%,-13.1%
CC(C)(C)OC(=O)N1CCCC(C(=O)Nc2ccc(C(=O)N3CCCC3)cc2)C1 (stereo not given),-10.9%,i
CCN1CCN(C(c2ccccc2)c2nnnn2CCc2ccc(OC)c(OC)c2)CC1 (stereo not given),-7.8%,-18.4%
Cc1cc(Br)cc2c(C(=O)NCC3CCCO3)cc(-c3ccccc3)nc12 (stereo not given),-6.3%,i
NC(=O)c1ccsc1NC(=O)COC(=O)Cc1ccc(F)cc1,-15.3%,-3.1%
O=C(Nc1ccc(F)cc1)c1csc2c1CCCCC2,-21.4%,-19.9%
CC(=O)c1cccc(NC(=O)C2CCCN2S(=O)(=O)c2cccc3cccnc23)c1 (stereo not given),-3.3%,6.4%
CCCCOc1ccccc1C1CC(=O)Nc2ccc3ccccc3c21 (stereo not given),-8.0%[7.34 µM],i[7.34 µM]
Cc1noc(C)c1COc1ccc(C(=O)OCC(=O)OC(C)(C)C)cc1,-12.0%,-9.6%
COc1ccc(-c2cc(NC=O)c3ncc(-c4cc(OC)c(OC)c(OC)c4)n3c2)c(OC)c1,?,?
COc1ccc(N2CCN(C(=O)c3ccc(Br)cc3)CC2)c([N+](=O)[O-])c1,-7.1%,-11.5%
O=C(c1ccco1)N1CCN(S(=O)(=O)c2ccccc2)CC1,-5.9%,-12.8%
Cc1ccc(C)c(NC(=O)CN2C(=O)c3cccnc3Oc3ccc(C)cc32)c1,-11.0%,-18.6%

# Next section, starting with the last 6 of the part before.
SMILES,Vaccinia Venus,VACV mCherry inh
CCCCOc1ccccc1C1CC(=O)Nc2ccc3ccccc3c21 (stereo not given),-8.0%[7.34 µM],i[7.34 µM]
Cc1noc(C)c1COc1ccc(C(=O)OCC(=O)OC(C)(C)C)cc1,-12.0%,-9.6%
COc1ccc(-c2cc(NC=O)c3ncc(-c4cc(OC)c(OC)c(OC)c4)n3c2)c(OC)c1,?,?
COc1ccc(N2CCN(C(=O)c3ccc(Br)cc3)CC2)c([N+](=O)[O-])c1,-7.1%,-11.5%
O=C(c1ccco1)N1CCN(S(=O)(=O)c2ccccc2)CC1,-5.9%,-12.8%
Cc1ccc(C)c(NC(=O)CN2C(=O)c3cccnc3Oc3ccc(C)cc32)c1,-11.0%,-18.6%
COc1ccc(C(C(=O)NCc2ccccc2)n2c(=O)c(-c3ccccc3)nc3ccccc32)cc1 (stereo not given),-22.5%,i
O=C(COc1ccc(F)cc1)Nc1nc(-c2cccnc2)cs1,-1.3%,-12.8%
O=C(OCC(=O)N1CCC(Cc2ccccc2)CC1)c1ccccc1NCCO,-7.3%,?
Cc1c(CC(=O)N2CCC(O)CC2)c(=O)oc2cc3c(cc12)CCC1(CCCCC1)O3,-27.0%,-10.7%
COc1ccc(COC(=O)CCc2cc(OC)c(OC)c(OC)c2)cc1F,-3.4%,-8.2%
COc1ccccc1NC(=S)NC(NC(C)=O)C(Cl)(Cl)Cl (stereo not given),-19.5%,-5.1%
COc1ccc(NC(=O)CN(C)C(=O)CNC(=O)c2cccs2)cc1,-8.4%,-9.9%
Cc1ccc(S(=O)(=O)NC(CC(C)C)C(=O)N2CC(C)OC(C)C2)cc1 (stereo not given),-11.8%,i
Cc1cc(Br)ccc1NC(=O)C1CCN(S(=O)(=O)c2ccc(Br)s2)CC1,-29.0%,?
CCN(CC)S(=O)(=O)c1ccc2c(c1)nc(-c1ccccn1)n2C,-14.2%,-8.5%
CCCCC(=O)NC(c1ccc(OC)c(OC)c1)c1c(O)ccc2ccccc12 (stereo not given),?,?
CC(C)NC(=O)C1COc2ccccc2O1 (stereo not given),-17.9%,i
CSC1=NC(C)(C)C=C(/C=C/c2ccc(Cl)cc2Cl)N1,-5.8%,-26.5%
Cc1ccc([C@@H]2[C@@H]3C(=O)N(c4ccccc4)C(=O)[C@@H]3[C@]3(Cc4ccccc4)C(=O)N(CC4CC4)CC(=O)N23)o1,-10.6%,-1.9%
COc1ccc(S(=O)(=O)N2CCOCC2)cc1NC(=O)COc1ccc(C(C)=O)cc1OC,-22.9%,-4.7%
Clc1cccc(Cl)c1Cn1cnc2c(N3CCCCCC3)ncnc21,-12.7%,i
CC(=O)O[C@H]1C2OC(=O)C(C)=C2[C@@H]2OC(=O)[C@]3(CCC4OC41C)OC23 (stereo not given in full),-24.8%,-15.8%
Cc1ccsc1C(=O)OCC(=O)NCC1CCCO1 (stereo not given),5.8%,/
COc1ccc(CCNC(=O)c2cc3c(=O)n4cccc(C)c4nc3s2)cc1OC,-0.2%,-4.7%
COc1ccc(OC)c(NC(=O)c2cc(=O)c3c(C)cc(C)cc3o2)c1,-1.9%,-17.5%
CSc1ccc(/C=N/N2CCN(Cc3ccccc3Cl)CC2)cc1,-19.9%,-17.3%
O=C1c2ccccc2C2NC(=O)C3(CCCCC3)N12 (stereo not given),-10.1%,-6.2%
NC(=O)CSc1nnc2n(-c3ccccc3)c(=O)c3c4c(sc3n12)CCCCC4,-6.1%,-13.3%
COc1ccc(C2C(C(=O)Nc3cccc(OC)c3)c3ccccc3C(=O)N2C)cc1 (stereo not given),-14.5%,-14.6%
O=C(Nc1ccc(C(=O)O)cc1)/C(=C\C=C\c1ccccc1)NC(=O)c1ccc(Br)cc1,-6.9%,-4.9%
COc1ccc(-c2nn(CCC(=O)O)cc2/C=C2\SC(N)=NC2=O)cc1,-12.0%,-11.9%
Cc1c(C=C(C#N)c2ccc([N+](=O)[O-])cc2)c(=O)n(-c2ccccc2)n1C,-13.6%,-19.9%
O=C(O)/C(=C\c1cccs1)c1ccccc1,-4.1%,-12.4%
CS(=O)(=O)N1CCC(C(=O)NNC(=O)Nc2ccc(F)c(Cl)c2)CC1,-3.4%,i
Cc1ccc(C(=O)Nc2ccc(NC(=O)c3ccco3)c(C)c2)cc1,-6.8%,76.3%[activator]
CSc1nc(Nc2ccc(F)cc2)cc(-c2ccccc2)n1,-18.6%,-19.0%
CCCCN(C)C(=O)c1nc2ccccn2c1CNCCCn1nnc2ccccc21,-2.8%,i
COC(=O)C1=C(C)N(Cc2ccco2)C(=O)/C1=C\c1ccc([N+](=O)[O-])cc1,10.4%,-6.9%
O=C(CCc1ccccc1)NN1C(=O)C2C3C=CC(C3)C2C1=O (stereo not given),-6.1%,i
Cc1ccc(NC(=O)C2CCCN2S(=O)(=O)c2cccc3cccnc23)cc1 (stereo not given),-12.7%,i
Cc1ccc(NC(=O)CCCn2nc(C)c3c(C)n(-c4ccccc4)nc3c2=O)cc1Cl,-6.1%,-14.5%
O=C(N/N=C/c1ccccc1)c1cc[n+]([O-])cc1,-14.8%,-5.7%
O=C(NCC1CCC2(CCN(Cc3ccc4ncccc4c3)CC2)O1)C1CCCO1 (stereo not given),-12.8%,i
Cc1ccc(Cn2c(SCc3ccc(C(=O)NC4CCCCC4)cc3)nc3ccncc32)cc1,-24.9%,-22.4%
CCN(CC)S(=O)(=O)c1ccc(C2=NOC3(C2)N(C)c2ccccc2C3(C)C)cc1 (stereo not given),14.4%,-16.7%
CCC1CCCCN1C(=O)CSc1nc(N)cc(=O)[nH]1 (stereo not given),4.5%,12.8%
CCCCNCC(O)(c1ccc(Cl)cc1)c1ccc(Cl)cc1,-21.9%,-22.7%
FC(F)(F)c1cnc(-c2cnc3c(-c4ccc(Cl)cc4)cnn3c2)c(Cl)c1,3.5%,-12.1%
Cn1c(CCN2CCCCC2)nc2cc([N+](=O)[O-])ccc21,-18.3%,-11.6%
O=C(CCCC(=O)c1ccc(O)cc1)c1ccc(O)cc1,-6.5%,i
OCCCc1nc2ccccc2n1CCCCOc1ccccc1,-13.5%,-16.1%
O=S1(=O)c2ccccc2OC(COCc2ccccc2)CN1C1CC1 (stereo not given),-11.0%,i
Cc1ccc(S(=O)(=O)c2nc(-c3cccs3)oc2SCC(N)=O)cc1,-16.2%,-22.6%
CC(=O)C1=C(C)NC(SCC(N)=O)=C(C#N)C1c1ccco1 (stereo not given),-15.1%,-5.5%
Cc1cc(C)nc(/N=C(\N)Nc2ccc(OCc3ccccc3)cc2)n1,?,?
CCc1c(O)nc(SCC(=O)Nc2ccccc2)n(-c2ccccc2C)c1=O,-16.0%,-9.9%
CCOC(=O)N1CCN(C(=O)C[C@@H]2C[C@@]3(C(=O)OCC)CCC=C3N(Cc3cccc4ccccc34)C2=O)CC1,-4.9%,-4.9%
COc1cccc(C(C)(O)c2nc(-c3ccc(F)cc3OC)cs2)c1 (stereo not given),-6.5%,-10.5%
N#C/C(=C\c1c(N(Cc2ccccc2)Cc2ccccc2)nc2ccccn2c1=O)C(N)=O,-22.6%,-27.9%
CCn1cc(C(=O)NCC2CCCO2)c(=O)c2cc(F)c(N3CCN(C)CC3)cc21 (stereo not given),-13.2%,/
CC(C)NC(=O)CCCc1cn(C)c2ccccc12,-13.4%,-10.9%
COc1ccc(N2CCN(CCCNC(=O)CCC(=O)N3CCOc4ccc(Cl)cc43)CC2)cc1,-16.7%,?
CC(=O)OC(C(=O)NCc1ccco1)c1ccncc1 (stereo not given),-3.5%,-8.5%
Cc1ccc(C)c(NC(=O)CSc2nnc([C@@H]3CCCN3C(=O)OC(C)(C)C)o2)c1,-2.1%,-13.5%
COCCn1c(C)cc(C2=NNC(=NC3CC3)SC2)c1C,-3.9%,i

# Brought forward from above: 3 compounds, followed by the next part.
SMILES,Vaccinia Venus,VACV mCherry inh
CC(=O)OC(C(=O)NCc1ccco1)c1ccncc1 (stereo not given),-3.5%,-8.5%
Cc1ccc(C)c(NC(=O)CSc2nnc([C@@H]3CCCN3C(=O)OC(C)(C)C)o2)c1,-2.1%,-13.5%
COCCn1c(C)cc(C2=NNC(=NC3CC3)SC2)c1C,-3.9%,i
CN(C(=O)c1cccc(NC(=O)Cc2ccc(NC(=O)C3CCCN(C(=O)c4ccccc4)C3)cc2)c1)C1CCCC1 (stereo not given),-21.4%,-7.7%
CCC1Nc2ncnc(N3CCOCC3)c2N(Cc2ccc(Br)cc2)C1=O (stereo not given),-11.0%&2.8%,i
Cc1ccc(-c2noc(-c3ccno3)n2)cc1,-7.2%,-13.1%
N#Cc1nc(-c2ccccc2)oc1N1CCC(C(N)=O)CC1,-5.3%,0.7%
COc1ccccc1CNC(=O)c1cnc2sccn2c1=O,-14.1%,-0.3%
COCCN(C(=O)COC(=O)CCc1c[nH]c2ccccc12)c1c(N)n(Cc2ccccc2)c(=O)[nH]c1=O,-14.8%,-0.4%
Cc1csc2nc(CSc3nc4ccccc4o3)c(Br)n12,-19.1%,-29.0%
Cc1c(NC(=O)c2cccs2)cccc1NC(=O)c1cccs1,-9.8%,-14.9%
Cn1cncc1C#Cc1ccc2cc(C(C)(C)O)oc(=O)c2c1,-10.4%,i
CC1CCCC(C)N1C(=O)Cn1c(SCC(=O)NCc2ccc3c(c2)OCO3)nc2ccccc21 (stereo not given),1.1%,-7.8%
CC/C(=N\NC(=O)C1CCCC1)c1ccc(Br)cc1,-7.0%,-13.6%
COc1cc(C(=O)OCC(=O)NC2CCS(=O)(=O)C2)c([N+](=O)[O-])cc1OC (stereo not given),5.1%,-10.3%
CC(C)CC(=O)Nc1nnc2n1CCS2,1.7%,7.2%
CCN(CC)c1ccc2c(C)c(CN3CCOCC3)c(=O)oc2c1,?,-13.6%
CCN(CC(=O)Nc1ccc(OC)cc1)C(=O)CCS(=O)(=O)c1ccc(C)cc1,-8.3%,-5.0%
Nc1ncnc(Sc2ccccc2)c1[N+](=O)[O-],-11.2%,-13.3%
Clc1cncc(N2CCNCC2)n1,-2.4%,-10.4%
CCc1ccc(NC(=O)C(=O)NCCc2sc3nc(-c4ccc(OC)cc4)nn3c2C)cc1,-7.9%,i
NC(=O)c1ccccc1OCc1nnc(-c2ccccc2Br)o1,2.6%,-1.8%
C/C(=N\OCC(=O)OC(C)C(=O)Nc1ccc(C(N)=O)cc1)c1ccc2c(c1)OCO2 (stereo not given),-6.8%,i
O=C1CC(c2ccc(F)cc2)CC(O)=C1C=NCCN1CCNCC1 (stereo not given),-13.5%,-14.0%
Cc1cc(C)n(C2CC(=O)N(c3ccc(Cl)c(Cl)c3)C2=O)n1 (stereo not given),-9.3%,i
COc1ccc(N2CC(C(=O)Nc3cc(C)ccn3)CC2=O)cc1 (stereo not given),1.2%,-5.4%
COc1ccc(NC(=O)c2ccc(NC(=O)CN3CCN(c4ccccc4O)CC3)cc2)cc1,-19.2%,?
CCOC(=O)c1c(C)nc2sc3c(=O)n(-c4ccc(OC)cc4)cnc3c2c1-c1ccc(OC)cc1,-3.4%,-14.9%
CN1/C(=C/C(=O)c2ccc(Cl)cc2)Sc2cc3c(cc21)OCO3,0.8%,-9.7%
CCOC(=O)c1cc(=O)n2nc(-c3ccccc3F)nc2s1,-11.8%,-13.0%
c1ccc(N2CCN(Cc3cccn3-c3nnc(N4CCN(C5CCCCC5)CC4)s3)CC2)cc1,-6.8%,-13.0%
Cc1ccc(S(=O)(=O)Cc2nc3ccccc3c(=O)[nH]2)cc1,-3.6%,-7.4%

# Screening results from PubChem.
